# Screening results from PubChem BioAssay.
# Cruzain noTriton: cruzain (T. cruzi) inhibition without detergent; AID 1476; P25779; actives 2.3% (n = 200,000); Potency, µM, for the others: max response, negative = inhibition, hits mostly inhibitors; purified cruzain, Z-FR-AMC fluorescence, no detergent; active = well fitted curve in the direction sought with a large enough effect; inconclusive = small, poorly fitted or top-dose-only effect, or another doubt; inactive = no such curve, though single readings can be large; an effect the other way counts as inactive or inconclusive;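 note: plate controls were enzyme without inhibitor for no effect and buffer without enzyme for full effect; nearly all actives have a fitted effect of over 40% in size; top concentration of the series not given in the record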
# Target sequence (P25779 123-467 limits assumed): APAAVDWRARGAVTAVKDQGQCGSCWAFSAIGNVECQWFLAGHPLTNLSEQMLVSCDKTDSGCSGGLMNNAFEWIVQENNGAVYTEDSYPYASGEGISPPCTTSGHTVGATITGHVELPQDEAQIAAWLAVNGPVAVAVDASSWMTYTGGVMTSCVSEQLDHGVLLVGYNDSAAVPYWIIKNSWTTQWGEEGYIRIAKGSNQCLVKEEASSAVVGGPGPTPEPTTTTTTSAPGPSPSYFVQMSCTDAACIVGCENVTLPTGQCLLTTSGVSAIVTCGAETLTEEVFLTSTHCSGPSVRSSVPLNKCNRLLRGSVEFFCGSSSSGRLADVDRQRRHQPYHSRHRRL
#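 Detergent-free condition (0.00005% Triton X-100) in acetate buffer pH 5.5 with DTT. 1.5 nM enzyme and compound were pre-mixed 15 min, then 2 uM Z-FR-AMC substrate added; reaction progress from fluorescence change between first and third reads (60 s).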
# Marburg entry inh: inhibitors of Marburg virus binding or cell entry; Marburg virus pseudotyped entry inhibition, cell reporter; control for the full effect not named in the record; about a third of the inactives were read at about 46 µM; AID 540276; actives 1.8% (n = 300,000); Potency, µM (doses to about 37.8 µM), for inactives: at the top dose activity change, negative = inhibition, usual class: inhibitors; active = well fitted inhibition curve with a large enough effect; inconclusive = small, poorly fitted or top-dose-only effect, or effect the other way; inactive = flat fitted curve, though single readings scatter; tested in HEK293 cells; about a fifth of its hits are not listed in these tables; note: % is set by controls: 0 for no effect and ±100 for the full control effect; luciferase read-out
# RE007 growth inh: less growth of the S. pombe RE007 Vpr strain | Potency, µM (doses to about 92.2 µM), without a hit: at the highest dose activity change, negative = less growth | S. pombe RE007 Vpr strain, BacTiter-Glo ATP luminescence, 24 h; control for the full effect not named in the record | AID 651644 | actives 0.21% (n = 360,000); active = well fitted falling curve with a large enough effect; inconclusive = small, poorly fitted or top-dose-only effect; inactive = no such curve, though single readings can be large or run the other way;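 note: % is set by controls: 0 for no effect and ±100 for the full control effect; nearly all actives have a fitted effect of over 50% in size; the assay follows cell death caused by Vpr and the record does not say whether a fall means rescue or toxicity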
#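 Fission yeast strain RE007, carrying one chromosomally integrated HIV-1 vpr copy, was seeded at OD 0.01 in PMG+AL medium with 23 nL pinned compound. After 24 h at 30 °C and 99% humidity, viability was read by BacTiter-Glo luminescence.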
# 2A StopGo: FMDV 2A StopGo reporter, luciferase signal; human cells with a luciferase reporter of 2A StopGo recoding; control for the full effect not named in the record; Potency, µM (titrated, usually from 57.9 µM), without a hit: top-dose signal change, negative = less light; actives 1.2% (n = 410,000); AID 1159524; active = well fitted falling curve with a large enough effect; inconclusive = small, poorly fitted or top-dose-only effect; inactive = no such curve, though single readings can be large or run the other way; tested in HEK293T cells; note: % is set by controls: 0 for no effect and ±100 for the full control effect; nearly all actives have a fitted effect of over 45% in size; luciferase light after 4 h
# LASV entry inh: blocks Lassa virus binding to or entry into cells. actives 1.2% (n = 300,000). Lassa virus pseudotype entry inhibition, cell reporter; control for the full effect not named in the record. Potency, µM (top dose mostly 37.9 µM), for the others: at the top dose activity change, negative = inhibition, most hits filed as inhibitors; active means well fitted inhibition curve with a large enough effect; inconclusive means small, poorly fitted or top-dose-only effect, or effect the other way; inactive means flat fitted curve, though single readings scatter; tested in HEK293 cells; note: % is set by controls: 0 for no effect and ±100 for the full control effect; nearly all actives have a fitted effect of over 50% in size; luciferase read-out
# NS1 function inh: influenza NS1 inhibition. S. cerevisiae slowed by influenza A NS1, growth recovery by OD600. Potency, µM (series often up to 46.1 µM), inactives show at the top dose activity, positive = more growth. actives 0.4% (n = 270,000). AID 2326; note: actives are rising curves; nearly all actives have a fitted effect of over 50% in size
#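 Read-out: OD600 growth recovery of NS1-expressing budding yeast. Cells grown overnight at 30C in -URA glucose medium, washed, resuspended and diluted 1:100 in 2% galactose assay medium, pH 6.0. Same strain lacking NS1 served as positive control.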
# Cruzain Triton: blocks cruzain activity in presence of Triton detergent. P25779. purified cruzain, Z-FR-AMC fluorescence, 0.01% Triton. Potency, µM, for inactives: max response, negative = inhibition, usual class: inhibitors. actives 0.43% (n = 200,000); active = well fitted curve in the direction sought with a large enough effect; inconclusive = small, poorly fitted or top-dose-only effect, or another doubt; inactive = no such curve, though single readings can be large; an effect the other way counts as inactive or inconclusive;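 note: plate controls were neutral wells for no effect and buffer without enzyme for full effect; nearly all actives have a fitted effect of over 40% in size; top concentration of the series not given in the record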
#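 Detergent-containing arm of a paired screen for aggregation-based inhibition: 0.01% Triton X-100 present. Cruzain at 1.5 nM cleaved 2 uM Z-FR-AMC at pH 5.5 with 5 mM DTT; AMC fluorescence gain over 60 s measured activity.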
# SARS PLpro yeast: SARS-CoV PLP inhibition in yeast; actives 0.19% (n = 330,000); S. cerevisiae expressing SARS-CoV PLpro, growth rescue; control for the full effect not named in the record; Potency, µM (highest dose often 32.9 µM), inactives show at the top dose activity, positive = growth rescue; AID 485353; note: 0% is about no effect; nearly all actives have a fitted effect of over 55% in size; growth read by luminescence after 48 h
# * marks the source's active call; other numbers are inactive results; u = inconclusive; x = not tested or not shown; & = joins results of further samples; [ ] = remark or other dose. Unless noted, calls come from the whole dose curve; as a rule, active means well fitted rising curve with a large enough effect; inconclusive means small, poorly fitted or top-dose-only effect; inactive means no such curve, though single readings can be large or run the other way. Potency is the fitted concentration of half-maximal effect. Rows were taken by chance; 4.7% or so of the library scored in one or more.
SMILES,Cruzain noTriton,Marburg entry inh,RE007 growth inh,2A StopGo,LASV entry inh,NS1 function inh,Cruzain Triton,SARS PLpro yeast
COc1ccccc1C(=O)NCCC(=O)N1CCCCC1,x,x,4%,1%,x,1%,x,0%
COc1ccccc1/C=C/C(=O)Nc1ccc(N2CCOCC2)cc1,x,-5%[46.1 µM],-6%,4%,-18%,x,x,-5%
Cc1onc(-c2ccccc2Cl)c1C(=O)Nc1cccc(S(=O)(=O)NC2=NCCC2)c1,x,-3%[46.1 µM],-1%,4%,10%,x,x,-1%
CC(C)c1nnc(NC(=O)c2cccc(NC(=O)C(F)(F)F)c2)s1,x,u,-10%,-1%,-8%[46.1 µM],x,x,2%
O=C(NNC(=O)C1CCN(Cc2ccc(Cl)c(Cl)c2)CC1)c1cccs1,x,3%[46.1 µM],3%,u,-11%,1%,x,1%
COc1ccc2[nH]c(=O)c(CN(Cc3cccs3)Cc3nnnn3Cc3ccccc3)cc2c1,3%,u,-6%[3.69 µM],u,-20%,3%,-0.7%,2%
COc1ccc(C2NC(=O)c3sc(=S)n(-c4ccccc4)c3N2)cc1 (stereo unspecified),25µM*,-3%,-2%,0%,-18%,0%,-0.1%,2%
O=C(COC(=O)c1c2c(nc3ccccc13)/C(=C/c1ccco1)CC2)NC1CCCC1,-5%,u,-11%,12%,13µM*,23%,-26%,0%
CCC(C)Sc1nnc(CNS(=O)(=O)c2ccc(F)cc2)n1C (stereo unspecified),x,x,3%,-12%,x,8%,x,25%
O=C1CC(N2CCN(c3ccc(C(=O)c4ccc(F)cc4)cc3)CC2)C(=O)N1 (stereo unspecified),5%,u,3%,-7%,7%,-21%,-5.7%,-4%
O=C(CCC(=O)c1ccccc1)Nc1ccccc1OC(F)F,x,0%[46.1 µM],7%,10%,u,-2%,x,1%
CCC1CN(C)CCC1(OC(C)=O)c1ccccc1 (stereo unspecified),5%,5%,2%,-6%,16%,6%,-1.8%,1%
Cc1ccc2nc3sc(C(=O)N4CCOCC4)c(N)c3cc2c1,-2%,0.41µM*,-6%,10µM*,u,-9%,-6.5%,-2%
CCOC(=O)c1c(C)nc2cc(C)ccn12,-1%,8%,5%,45%[activator],-1%,-16%,2.5%,13%
CC(Cl)C(=O)NC(=O)NC12CC3CC(CC(C3)C1)C2 (stereo unspecified),-6%,17%,45%,-20%,-28%,-18%,-5.7%,-3%
O=C(Nc1nncs1)c1ccccc1Br,0%,21%,u,13%,9%,-4%,5.5%,0%
COc1ccc(CN2C(=O)C(C)=C(C)C2OC)cc1 (stereo unspecified),x,0%[46.1 µM],2%,-19%,6%[46.1 µM],5%,x,3%
COc1cccc(-c2cccc(NC(=O)C3CCN(Cc4cnn(C)c4)CC3)c2)c1,x,24%,-18%,-15%,7%,27%,x,2%
COc1ccc(/C=C/c2nc(-c3ccccc3O)n[nH]2)cc1,13µM*,u,u,-18%,u,-14%,-13%,-24%
Brc1ccc(-c2n(-c3ccccn3)c3ccccc3[n+]2-c2ccccn2)cc1,x,x,-7%,-29%,x,9%,x,-1%
O=C(c1ccc(S(=O)(=O)Nc2ccccc2F)cc1)N1CCC1,x,-6%,1%,-17%,0%,x,x,1%
COCCN(C(=O)COC(=O)CCC(=O)c1cccs1)c1c(N)n(Cc2ccccc2)c(=O)[nH]c1=O,x,20%,-27%,-11%,-7%,x,x,-3%
O=C(CCS(=O)(=O)c1ccccc1Cl)Nc1ccc(S(=O)(=O)Nc2ncccn2)cc1,x,x,18%,6%,x,3%,x,1%
COCCNS(=O)(=O)c1ccc(OCC(=O)N2CCc3ccccc3C2)c(Cl)c1,x,x,14%,37%[activator],x,-12%,x,-1%
NCCc1nnc(SCc2ccccc2Cl)o1,x,5%[46.1 µM],-6%,-9%,-18%,0%,x,0%
COc1cccc(C(=O)Nc2ccc3nc(SCC(=O)N4CCc5ccccc54)sc3c2)c1,13µM*,-14%[46.1 µM],x,-12%,4%[46.1 µM],x,-2.9%,x
CCN1C(=O)c2cccc3c(S(=O)(=O)NCCCN4CCOCC4)ccc1c23,-2%,-6%,0%,36%[activator],-1%,-2%,-4.4%,-1%
CCN1CCN(c2nc3c(c(=O)n(C)c(=O)n3C)n2Cc2cccc3ccccc23)CC1,5%,u,-15%,x,10%,-16%,3.2%,3%
CCOc1ccccc1-n1nnnc1SCC(=O)NC(=O)NCc1ccco1,-2%,-2%,-3%,0%,-15%,-7%,-6.5%,2%
COc1ccccc1NC(=O)Nc1nc(C(C)(C)C)cs1,x,u,2%,3%,u,x,x,1%
COc1ccc(CCC(=O)NCCc2csc(-c3ccc(F)cc3)n2)cc1,3%,x,x,-8%,12%[46.1 µM],x,-4.7%,x
CCC(=O)N(Cc1cc2cc(C)c(C)cc2[nH]c1=O)C1CCCCC1,15%,-1%,-2%,-17%,-4%,-4%,5.2%,-9%
COc1ccc2oc(=O)c(C(=O)NCc3ccco3)cc2c1,x,9%[46.1 µM],0%,3%,8%,-7%,x,-1%
COc1cc(OC)c(C(=O)O/N=C(\N)c2ccc(C)cc2)cc1OC,x,7.9µM*,7%,19%,u,-2%,x,-8%
CC(C)=CCN1CCN(Cc2cc(C(C)C)n[nH]2)CC1CCO (stereo unspecified),x,-3%[46.1 µM],-15%,-17%,u,2%,x,0%
N#Cc1c(-c2ccccc2)nc(-c2ccccc2)[nH]c1=O,u,16%,-2%,-7%,22%,1%,4.7%,9%
CC1(C)CC(N2CCOCC2)=CC(=[N+]2CCOCC2)C1,x,u,-4%,-9%,-6%,x,x,-1%
O=C(CSc1ccc(Br)cc1)Nc1cccc(S(=O)(=O)N2CCOCC2)c1,x,-26%,2%,3%,u,x,x,3%
Cc1ccc(CSCC(=O)N(C)CC(=O)Nc2ccc(Br)cc2C)cc1,x,u,-2%,-13%,-12%,x,x,2%
COc1cccc(C2N(c3cccc(Cl)c3)C(=O)C3CCCN32)c1OC (stereo unspecified),12%,x,8%,-15%,x,-14%,0.7%,-7%
CCOC(=O)c1c(NC(=O)CCCOc2ccc(Cl)cc2)sc2c1CCC2,-7%,x,x,14%,-4%[46.1 µM],x,-3.1%,x
COc1cc(C2C(=O)N(C3CCCCC3)CC(=O)N2C2CCCCC2)ccc1OC(C)C (stereo unspecified),8%,x,x,-21%,-13%[46.1 µM],x,0.1%,x
COc1ccc2[nH]c(=O)c(C(c3nnnn3CC3CCCO3)N3CCCCC3)cc2c1 (stereo unspecified),x,0%[46.1 µM],-1%,26%,4%,0%,x,0%
CC(NC(=O)c1ccccc1Br)c1nnc(SCC(=O)NC2=NCCS2)n1C (stereo unspecified),x,10%[46.1 µM],0%,-9%,1%[46.1 µM],7%,x,-1%
Cc1csc(SCC(=O)Nc2nccs2)n1,x,u,-16%,6%,16%,x,x,4%
CC(C)(C)OC(=O)N1CCC[C@H]1c1nnc(SCC(=O)Nc2cccc(Cl)c2)o1,x,8%[46.1 µM],5%,4%,u,-3%,x,0%
O=C(OCc1nnc(-c2ccccc2)o1)c1ccc2c(c1)C(=O)N(CCc1ccccc1)C2=O,0%,9%&16%,12%,-11%,1%,-2%,-3.0%,-2%
CCOC(=O)c1sc(C)nc1C1CCN(C(=O)OCC)CC1,8%,6%,2%,6%,u,-4%,-4.0%,-3%
Cc1ccc(S(=O)(=O)Nc2ccc(S(=O)(=O)N3CCOCC3)cc2)cc1[N+](=O)[O-],x,u,-3%,34%[activator],2%,-1%,x,1%
CC[n+]1c(C=C2C=C(C)OC(C)=C2)sc2ccccc21,x,u,u,u,5µM*,x,x,-2%
Cc1nnc(SCC2=C(C(=O)O)N3C(=O)C(NC(=O)Cn4nc(C(F)F)c(Cl)c4C)C3SC2)s1 (stereo unspecified),x,-18%[46.1 µM],0%,17%,1%,x,x,-1%
Cc1cc2nc(CCN(Cc3cccnc3)C(=S)Nc3ccc(F)cc3)[nH]c2cc1C,-10%,u,0%,-8%,26%,-13%,-1.8%,-1%
CC12CN3CC(C)(CN(C1)P3(=O)Oc1ccccc1)C2=O (stereo unspecified),-8%,10%,10%,4%,2%,8%,4.4%,3%
O=c1c([N+](=O)[O-])cn(Cc2ccccc2)c(=O)n1Cc1ccccc1,x,u,-12%,u,u,x,x,x
O=C1COc2ccc(C(=O)COC(=O)c3ccc(F)cc3Cl)cc2N1,x,-2%[46.1 µM],1%,-6%,-27%[46.1 µM],x,x,4%
COc1ccc(-c2cc(C)no2)cc1S(=O)(=O)Nc1c(C)cc(C)cc1C,-1%,x,x,16%,u,x,-5.6%,x
COc1ccc(NC(=O)C(OC(=O)c2cnccn2)c2ccccc2)cc1Cl (stereo unspecified),x,-2%[46.1 µM],9%,17%,29%[46.1 µM],11%,x,1%
O=c1[nH]c2cc(Cl)ccc2n(CCNc2ncc(C(F)(F)F)cc2Cl)c1=O,u,30%,16%,-13%,6%,10%,4.1%,3%
O=C(O)c1nn(-c2ccccc2-c2n[nH]c(=O)[nH]c2=O)c(=O)[nH]c1=O,12%,x,x,x,x,3%&1%,3.0%,3%
CCCc1nn2c(=O)cc(COC(=O)c3ccc(NC(=O)c4cccs4)cc3)nc2s1,26%,x,x,-15%,12%[46.1 µM],x,1.2%,x
# Later entries.
SMILES,Cruzain noTriton,Marburg entry inh,RE007 growth inh,2A StopGo,LASV entry inh,NS1 function inh,Cruzain Triton,SARS PLpro yeast
Cc1cc(C)n(C(=O)C2CCCN2S(=O)(=O)c2ccc(Cl)cc2)n1 (stereo unspecified),-5%,-20%,3%,-15%,-1%,2%,-1.8%,3%
O=C(CSCc1ccccc1)N1CCN(c2ccccc2)CC1,9%,u,-3%,50%[activator],16%,-10%,-2.2%,16%
Cc1cc(Cl)ccc1C(=O)C1CCCN(C2CCSCC2)C1 (stereo unspecified),x,10µM*,6%,-3%,u,2%,x,0%
O=C(CN1C(=O)NC2(CCCCCCC2)C1=O)N1CCN(C(=O)c2ccco2)CC1,-4%,-6%,15%,-22%,6%,5%,-6.3%,13%
